# Menin MLL FP FL = qHTS Assay for Inhibitors Targeting the Menin-MLL Interaction in MLL Related Leukemias: Competition With Fluorescein Labeled MLL-derived Peptide. FP activity change, % at 61.4 µM. Fluorescence polarization, fluorescein-MLL peptide displacement from menin. AID 1766, 2009. 290,000 tested, under 10 active; inconclusive = falling polarisation curve, or a change in total fluorescence; inactive = total fluorescence flat and polarisation flat or rising; no compound was filed as active; the % refers to the polarisation; negative = inhibition;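 further: % of control where 0% means no effect; inhibitors lower the polarisation; unlabelled MLL peptide was the positive control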
# ClpP mod = qHTS Assay for Activators of ClpP; ATP-dependent Clp protease proteolytic subunit (Bacillus subtilis (strain 168)), P80244; purified B. subtilis ClpP, FRET peptide cleavage, 20 min; Potency, µM (top dose mostly 57.5 µM), inactives show at the top dose activity change, negative = active; 340,000 tested, 1.9% active; active = well fitted falling curve with a large enough effect; inconclusive = small, poorly fitted or top-dose-only effect; inactive = no such curve, though single readings can be large or run the other way; further: potency means the concentration at half of the fitted maximal effect; the source files actives as falling curves though it sought activators and does not explain the sign; nearly all actives have a fitted effect of over 65% in size; many hits overshoot -100%
# Target sequence (P80244 whole entry, looked up): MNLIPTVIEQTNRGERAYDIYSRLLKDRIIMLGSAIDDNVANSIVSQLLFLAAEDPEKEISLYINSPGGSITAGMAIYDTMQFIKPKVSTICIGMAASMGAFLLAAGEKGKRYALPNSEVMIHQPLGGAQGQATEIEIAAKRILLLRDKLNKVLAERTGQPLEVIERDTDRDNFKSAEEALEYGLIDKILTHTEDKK
#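 Buffer: 100 mM Tris/HCl pH8, 100 mM KCl, 0.05% low protease BSA, 2.5% glycerol, 0.01% Tween-20. ClpP 10 microg/mL final; 20 min RT; delta FRET normalized to ADEP and DMSO controls.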
# CtBP-E1A blk = qHTS Assay for Inhibitors of the CtBP/E1A Interaction; 340,000 tested, 0.49% active; activity change, % (no concentration beside the values); CtBP / adenovirus E1A interaction (AlphaScreen); AlphaScreen GST-E1A/His-CtBP binding, 1536-well; hits give low values; control for the full effect not named in the record; in the data active means activity change below about -65%; inconclusive means about -30% to -65%; inactive means above about -30%; further: on the % scale 0 is the no-effect control and ±100 the full control effect; compound concentration not given in the record
#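 Protein mix (5X: 125 nM each GST-E1A, His-CtBP) was incubated with pinned compound 2 h at 37 deg C in dark, in 50 mM Tris pH 8.0 buffer with 300 mM NaCl. Glutathione donor and nickel acceptor beads followed; AlphaScreen signal read after 1 h.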
# Sfp inh = qHTS Assay for Inhibitors of Bacillus subtilis Sfp phosphopantetheinyl transferase (PPTase) | 4'-phosphopantetheinyl transferase ffp (Bacillus subtilis), Q9F4F7 | Biochemical Sfp PPTase activity, qHTS | Potency, µM, inactives show max response, negative = inhibition, usual class: inhibitors | 310,000 tested, 3.5% active; active means well fitted inhibition curve with a large enough effect; inconclusive means small, poorly fitted or top-dose-only effect, or another doubt; inactive means no such curve, though single readings can be large or run the other way;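 further: the enzyme is Sfp with the accession as filed and its product quenches rhodamine fluorescence; potency means the concentration at half of the fitted maximal effect; 0% = enzyme reaction without inhibitor and -100% = no enzyme wells; top concentration of the series not given in the record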
#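 Sfp 15 nM + cpd, 15 min RT; start w/ rhodamine-CoA 5 uM, BHQ-2-YbbR 12.5 uM (final); 50 mM Hepes pH 7.6, 10 mM MgCl2, 0.01% NP-40, 0.01% BSA; read 525/598 nm at 0 and 30 min.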
# TRPV1 potentiator = HTS Assay for Compounds that Act as Potentiators of the Vanilloid Receptor 1; Transient receptor potential cation channel subfamily V member 1 (Homo sapiens), Q8NER1; TRPV1-expressing cells, Fluo-8 calcium influx, capsaicin EC20 potentiation; host cell line not named in the record; control for the full effect not named in the record; potentiation, % at 8.33 µM; 320,000 tested, 0.02% active; active means potentiation above 80%; inconclusive means 30% to 80%; inactive means below 30%; further: 0% is about no effect
# Target sequence (Q8NER1 whole entry, looked up): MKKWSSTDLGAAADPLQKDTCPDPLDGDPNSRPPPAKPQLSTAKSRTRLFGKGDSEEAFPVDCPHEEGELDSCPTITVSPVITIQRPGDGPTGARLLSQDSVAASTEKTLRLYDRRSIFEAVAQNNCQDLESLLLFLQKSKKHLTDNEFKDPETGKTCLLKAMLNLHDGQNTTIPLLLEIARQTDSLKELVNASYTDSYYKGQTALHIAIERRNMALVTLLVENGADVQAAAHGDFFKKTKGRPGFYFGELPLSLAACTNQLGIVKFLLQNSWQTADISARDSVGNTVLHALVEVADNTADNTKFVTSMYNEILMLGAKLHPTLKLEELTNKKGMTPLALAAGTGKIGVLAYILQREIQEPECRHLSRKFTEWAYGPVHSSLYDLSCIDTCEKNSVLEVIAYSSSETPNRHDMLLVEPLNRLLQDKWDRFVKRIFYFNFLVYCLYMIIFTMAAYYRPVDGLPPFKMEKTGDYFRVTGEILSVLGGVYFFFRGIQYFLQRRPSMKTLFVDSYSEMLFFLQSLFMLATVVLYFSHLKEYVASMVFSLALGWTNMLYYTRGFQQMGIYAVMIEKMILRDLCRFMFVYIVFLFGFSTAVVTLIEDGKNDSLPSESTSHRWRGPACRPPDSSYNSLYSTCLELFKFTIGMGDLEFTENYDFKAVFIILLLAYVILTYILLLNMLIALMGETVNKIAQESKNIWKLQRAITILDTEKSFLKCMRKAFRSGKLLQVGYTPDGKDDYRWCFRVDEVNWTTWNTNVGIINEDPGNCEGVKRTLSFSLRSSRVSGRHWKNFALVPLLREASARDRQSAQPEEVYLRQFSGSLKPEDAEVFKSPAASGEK
#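 Cells expressing TRPV1 were dye-loaded with Fluo-8 and read kinetically: 10 s baseline, 3 min after compound (agonist portion), then 2 min after EC20 capsaicin (allosteric enhancer portion). Calcium-bound dye fluorescence at 480/520 nm.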
# gsp agonist = qHTS for Agonist of gsp, the Etiologic Mutation Responsible for Fibrous Dysplasia/McCune-Albright Syndrome: qHTS. Potency, µM (titrated, usually from 76.9 µM), without a hit: at the highest dose activation (cAMP increase), hits mostly activators. 340,000 tested, 0.13% active. AID 624287, 2012. gsp mutant cells, cAMP HTRF, 30 min; control for the full effect not named in the record; active = well fitted activation curve with a large enough effect; inconclusive = small, poorly fitted or top-dose-only effect, or another doubt; inactive = no such curve, though single readings can be large or run the other way; cell line not stated here;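 further: phosphodiesterase inhibitor Ro 20-1724 added with compounds to block cAMP breakdown; potency means the concentration at half of the fitted maximal effect; nearly all actives have a fitted effect of over 60% in size; about a fifth of the inactives were tested at one dose only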
#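 Cells stably selected in G418 were plated at 2000/well, grown 16-24 hr, then given compounds in DMSO with the PDE inhibitor […] (300 uM solution added) for 30 min at 37C; cAMP was read by HTRF.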
# gsp antagonist = qHTS for Antagonists of gsp, the Etiologic Mutation Responsible for Fibrous Dysplasia/McCune-Albright Syndrome: qHTS; 340,000 tested, 0.4% active; AID 624288, 2012; Potency, µM (series often up to 76.9 µM), inactives show top-dose activity change, negative = inhibition, most hits filed as inhibitors; gsp-mutant cells, cAMP HTRF, 30 min; control for the full effect not named in the record; active = falling curve of any shape with a large fitted effect; inconclusive = falling curve, mostly with a smaller effect; inactive = flat or rising curve; cell line not stated here;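 further: intracellular cAMP measured with PDE inhibitor Ro 20-1724 present during compound exposure; potency means the concentration at half of the fitted maximal effect; on the % scale 0 is the no-effect control and ±100 the full control effect; nearly all actives have a fitted effect of over 65% in size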
#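 G418-selected cells were plated in DMEM/10% FBS for 16-24 h at 37C, then treated with compounds plus the PDE inhibitor […] (300 uM solution added) for 30 min at 37C. Intracellular cAMP was measured by HTRF after 30 min lysis at room temperature.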
# * = called active by the depositor; ? = inconclusive; · = not tested or not shown; [ ] = another dose, or the depositor's remark. An unsorted share of the library. About 5.3% of those tested had a hit in this group.
SMILES,Menin MLL FP FL,ClpP mod,CtBP-E1A blk,Sfp inh,TRPV1 potentiator,gsp agonist,gsp antagonist
COc1ccccc1NC(=O)Cn1cnc2sc(C(=O)Nc3cc(OC)c(OC)c(OC)c3)c(C)c2c1=O,·,-0.6%,-17,2%,-7,6%,-9%
Cc1ccc2[nH]cc(C(=O)CCl)c2c1,0.3,1.1%,0,12%,11,-2%[15.4 µM],-19%
C#CCOCCOCCOCCNc1nc(N2CCN(C(=O)C([C@@H](C)CC)n3cc(C(N)CO)nn3)CC2)nc(N2CCN(C(=O)[C@H](CCC(=O)O)n3cc(C(N)Cc4ccc(O)cc4)nn3)CC2)n1 (stereo not given in full),?,·,·,-8%,-19,·,·
CCn1nnc2cc(C(=O)Nc3cc(Cl)ccc3C)ccc21,·,-2.1%,·,·,1,?,-2%
Cc1ccc(NC(=O)CSCC(=O)OCc2cc(=O)oc3cc(O)ccc23)c(C)c1,·,·,-6,·,5,7%[15.4 µM],-11%
COc1ccc2[nH]c(=O)c(CN(Cc3ccccc3)Cc3nnnn3CC3CCCO3)cc2c1 (stereo not given),3.5,28µM*,-3,-2%,9,3%,-11%
CN(Cc1ccccc1)C(=O)CN1CCN(C(c2ccccc2)c2ccccc2)CC1,-8.8,-0.8%,-19,-1%,-12,-10%[15.4 µM],-22%
O=C(N/N=C/c1ccc(N2CCOCC2)s1)c1ccccc1Br,?,·,3,35µM*,9,5%[15.4 µM],-9%
Cn1cnnc1SC1c2cccc3cccc(c23)C1NS(=O)(=O)c1ccccc1 (stereo not given),2.5,1.6%,4,-18%,26,-9%,15%
O=C(NC(=S)Nc1ccc(O)cc1)c1cncc(Br)c1,·,1.1%,·,·,·,-6%,-6%
O=C(CCn1c(=O)sc2ccccc21)NCCN1CCOCC1,·,-3.1%,4,·,·,-3%,10%
CN(Cc1cnn(C)c1)C(=O)CC1C(=O)NCCN1Cc1cccc(Oc2ccccc2)c1 (stereo not given),5.2,·,-5,6%,23,4%[15.4 µM],-7%
O=C(C1CCC1)N1CCc2cc(S(=O)(=O)N3CCCCC3)ccc21,0.4,0.3%,3,19%,-9,-7%,7%
O=C(CC1C(=O)NCCN1Cc1cccc(C(F)(F)F)c1)NC1CCOCC1 (stereo not given),·,-1.6%,4,4%,-3,-7%,12%
COc1ccc(CCNc2oc(-c3ccc(OC)c(OC)c3)nc2P(=O)(OC)OC)cc1OC,5.0,0.4%,-4,-9%,2,-1%[15.4 µM],16%
Cc1ccc(NC(=O)c2cccc(NC(=O)CCC(=O)O)c2)cc1C,2.0,·,·,20%,-10,-2%[15.4 µM],-1%
CC1=C(C(=O)N2CCOCC2)CC(CC(=O)NCCCCc2ccccc2)C(=O)N1Cc1ccc(F)cc1 (stereo not given),·,1.7%,1,·,·,-43%[inhibitor],·
CCn1c(CC(=O)Nc2ccccc2)nnc1SCC(=O)NC1CCCC1,4.0,·,2,10%,5,-15%,1%
CCn1c(C)[n+](CC)c2ccc(C(=O)N(C)c3ccccc3)cc21,-1.9,-0.6%,·,-7%,-11,38%,5%
Cc1cccc2[nH]c(CN(C)C(=O)CC3C(=O)NCCN3CC(C)(C)C)nc12 (stereo not given),-6.9,·,3,15%,5,-56%[inhibitor],-7%
O=C(COC(=O)COc1ccc(Br)cc1)Nc1ccc2c(c1)OCCO2,·,1.0%,·,·,-3,?,3%
Cc1cc(NC(=O)c2ccccc2-c2ccccc2)ccc1Br,-4.9,1.2%,31,10%,-11,2%[15.4 µM],?
COc1cccc2cc(C(=O)Nc3ccc(F)cc3)c(=Nc3ccc(C(=O)O)cc3)oc12,-0.1,1.5%,-2,-1%,3,-24%,11µM*
CC(=O)Nc1ccccc1NS(=O)(=O)c1ccc(Cl)cc1,-2.7,-0.5%,-1,19%,-4,-35%[inhibitor],-13%
Cc1cc(C)c2nc(N3CCC(C(=O)NCCCN4CC(C)CC(C)C4)CC3)sc2c1 (stereo not given),1.2,·,10,11%,16,0%[15.4 µM],15%

# Brought forward from above: two entries; new compounds follow.
SMILES,Menin MLL FP FL,ClpP mod,CtBP-E1A blk,Sfp inh,TRPV1 potentiator,gsp agonist,gsp antagonist
CC(=O)Nc1ccccc1NS(=O)(=O)c1ccc(Cl)cc1,-2.7,-0.5%,-1,19%,-4,-35%[inhibitor],-13%
Cc1cc(C)c2nc(N3CCC(C(=O)NCCCN4CC(C)CC(C)C4)CC3)sc2c1 (stereo not given),1.2,·,10,11%,16,0%[15.4 µM],15%
C=CCn1c(=O)c2ccccc2n2c(SCc3csc(-c4ccccc4)n3)nnc12,2.6,-3.1%,1,-14%,-6,4%,-17%
COc1ccc(/C=N/OCc2ccccc2C#N)c(OC)c1,-2.1,-5.7%,·,-9%,-5,3%,0%
COc1ccc(C(=O)Nc2ccc(N3CCN(C)CC3)cc2)cc1[N+](=O)[O-],-1.1,-1.3%,4,12%,-5,-2%[15.4 µM],0%
C[N+](C)(C)CC/C=C1/c2ccccc2CSc2ccccc21,2.2,-1.1%,7,3%,15,-10%,-4%
c1ccc(-c2nnc(-c3ccco3)o2)cc1,3.1,14µM*,6,13%,20,?,8%
Cc1ccc(S(=O)(=O)N2CCOCC2)cc1NC(=O)CSc1nnc2n1CCCCC2,·,1.8%,2,·,·,?,4%
Cc1ccc(S(=O)(=O)N(CC(=O)N/N=C/c2cccc3c2OCCO3)c2ccccc2F)cc1,7.6,22µM*,-14,18%,-19,-21%,-10%
Cn1c2ccccc2c2cc(C(=O)O)ccc21,1.0,-8.8%,0,14%,-3,1%,-18%
CC1(C)CC(=O)c2cc(C(=O)NC3CCSC3=O)c(=O)n(-c3ccc(Cl)cc3)c2C1 (stereo not given),1.0,-8.9%,5,9%,13,?,-4%
CCC(=O)Nc1ccc2nn(-c3ccc(F)cc3)nc2c1,2.2,4.9%,0,-6%,4,-25%,5%
COC(=O)c1ccccc1-c1cn(C)c2ccccc2c1=O,2.8,1.2%,7,2%,0,-5%[15.4 µM],4%
COc1ccc(CNC(=O)C2CCN(S(=O)(=O)N3CCOCC3)CC2)cc1,5.6,0.6%,10,4%,4,-6%,10%
COc1ccc(Cn2c(=O)[nH]c3cc(C(=O)NCCCN4CCCC4=O)ccc3c2=O)cc1,0.2,-10%,-1,0%,-3,-7%,-8%
COc1ccc(/C=C/C(=O)NCCc2c[nH]c3ccccc23)cc1OC,-3.1,-7.9%,·,-2%,29,-50%,-11%
C/C(Cn1nnc([N+](=O)[O-])n1)=N\NC(=O)c1ccccc1O,-1.8,-7.2%,-13,-7%,-4,-15%,18%
CSc1nnc(N2C(=O)C(O)=C(C(=O)c3ccco3)C2c2ccccc2)s1 (stereo not given),?,-3.3%,·,-23%,-7,?,-1%
O=S(=O)(N/N=C1\CCCc2ccccc21)c1ccccc1,·,-3.3%,·,·,5,-27%,1%
Cc1cc(Cl)cc(Cl)c1CNc1c([N+](=O)[O-])c(=O)oc2ccccc12,7.3,2.8%,-11,-1%,-4,10%,-17%
CCCCn1c(SCC(=O)N(C)C)nnc1-c1ccncc1,1.1,0.0%,6,5%,8,3%[15.4 µM],16%
CCCCN1C(=O)C(=O)NC[C@@H]1C(C)O (stereo not given in full),-0.5,-0.6%,·,-51%,3,15%,8%
COc1cc(-n2c(=O)c3ccccc3n(Cc3ccccc3)c2=O)cc(OC)c1OC,2.7,2.0%,1,?,2,-30%,8%
COc1cc(NC(=S)NC(=O)c2cccs2)ccc1NC(=O)C(C)C,-0.6,-0.2%,-3,-13%,-6,-1%,-7%
Cc1ccc(-n2ncc3c(=O)n(CC#N)cnc32)cc1,5.7,-8.6%,1,2%,3,13%,-5%
O=C(O)/C=C/S(=O)(=O)c1ccc2ccccc2c1,2.8,-0.1%,6,13%,2,-10%,13%
CCn1c2ccccc2c2cc(C3C(C#N)=C(N)Oc4n[nH]c(COC)c43)ccc21 (stereo not given),25,-16%,-3,-5%,-17,-15%,-3%

# Additional structures.
SMILES,Menin MLL FP FL,ClpP mod,CtBP-E1A blk,Sfp inh,TRPV1 potentiator,gsp agonist,gsp antagonist
CCOC(=O)CC1(NC(=O)C2CCC(=O)N(CCc3ccc(OC)cc3)C2)CCCCC1 (stereo not given),-5.4,-2.1%,3,20%,-4,21%,-9%
Cc1c(N2C(=O)CSC2c2ccc(F)cc2)c(=O)n(-c2ccccc2)n1C (stereo not given),3.9,-6.0%,0,27%,-3,-2%[15.4 µM],3%
CCOc1ccc(CNc2nc3ccccc3n2C)cc1,-3.7,-1.4%,·,10%,4,?,-7%
COc1ccc(CCNC(=O)C2CCCCC2C(=O)O)cc1OC (stereo not given),1.9,·,·,15%,-3,·,·
O=C(NC1CCCCC1)C(c1ccco1)N(CCc1ccccc1)C(=O)C(F)(F)F (stereo not given),-1.4,0.2%,52,21%,8,-34%[inhibitor],3%
COC(=O)Cc1ccc(NC(=S)NCCSc2ccc(Cl)cc2)cc1,-2.6,·,-1,23%,2,2%,-24%
COC(=O)c1sc(S(=O)(=O)N2CCCCC2C(=O)O)c(C(=O)OC)c1C (stereo not given),1.8,1.1%,4,17%,2,?,-31%
Cc1cccc(C)c1OCc1cc(C(=O)N2CC3C[C@@H]4CC2C[C@H](C3)C4)no1,·,0.5%,6,2%,2,-45%[inhibitor],-26%
O=C(CSC1=NCCS1)c1ccc(Cl)cc1,-1.8,1.2%,5,?,-3,-5%[15.4 µM],0%
Cc1cccc(C)c1NC(=O)CN1N=NC2C(=O)N(c3cccc(Cl)c3)C(=O)C21 (stereo not given),4.1,201%,-3,5%,-1,-17%,4%

# High-throughput results: PubChem, National Center for Advancing Translational Sciences (NCATS)
